Source: PubChem
Rango dissoc inh = inhibitors of RanGTP-induced Rango-importin beta complex dissociation; O95149+P62826; Biochemical FRET Rango-importin beta, RanGTP-induced dissociation; Potency, µM (titrated, usually from 46.1 µM), for inactives: at the top dose activity change, negative = inhibition; 340,000 compounds, 0.071% hits; AID 540253; active means falling FRET ratio curve, often poorly fitted, with flat reads before Ran was added; inconclusive means other falling curves, or compound fluorescence or quenching; inactive means flat or rising ratio curve;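 further: potency means the concentration at half of the fitted maximal effect; % of control where 0% means no effect; nearly all actives have a fitted effect of over 45% in size; -100% = wells without RanGTP and RCC1; the record marks most hits as doubtful in a second field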
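Compounds sat 5 min at room temperature with 0.1 uM Rango biosensor plus 0.25 uM importin beta, then FRET pre-read. RanGTP-RCC1 (0.6 uM Ran, 2mM GTP, 0.2 uM RCC1) added for 45 min, and the CFP/YFP post-read measured blocked complex dissociation.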
miR-21 FLuc = miR-21 reporter, rising signal; HeLa miR-21 FLuc reporter, luciferase, 48 h; Potency, µM (titrated, usually from 38.3 µM), without a hit: top-dose reporter change, positive = more light; 340,000 tested, under 10 active; active = well fitted rising curve with a large enough effect; inconclusive = small, poorly fitted or top-dose-only effect; inactive = no such curve, though single readings can be large or run the other way;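 further: % of control where 0% means no effect; miR-21 action dims this reporter so a rising signal means less miR-21 action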
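Compounds were titrated across several concentrations (up to approximately 40 uM) and incubated 48 hours with HeLa miR-21-FLuc reporter cells (miR-21 target sequence downstream of FLuc, endogenous miR-21). Readout was firefly luciferase luminescence after lytic detection reagent.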
GLA inh pH 4.5 = blocks human alpha-galactosidase A at pH 4.5. P06280. 230,000 tested, under 10 active. activity change, negative = inhibition, % at 105 µM. purified enzyme, 4-MU-alpha-Gal fluorescence, pH 4.5. AID 1467; inconclusive = small, poorly fitted or top-dose-only inhibition, or a rising curve; inactive = flat fitted curve, though single readings scatter; no compound was filed as active;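 further: 0% = full activity with enzyme and -100% = basal without enzyme; dose as in the result columns while the protocol names 77 µM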
Target sequence (P06280 whole entry, looked up): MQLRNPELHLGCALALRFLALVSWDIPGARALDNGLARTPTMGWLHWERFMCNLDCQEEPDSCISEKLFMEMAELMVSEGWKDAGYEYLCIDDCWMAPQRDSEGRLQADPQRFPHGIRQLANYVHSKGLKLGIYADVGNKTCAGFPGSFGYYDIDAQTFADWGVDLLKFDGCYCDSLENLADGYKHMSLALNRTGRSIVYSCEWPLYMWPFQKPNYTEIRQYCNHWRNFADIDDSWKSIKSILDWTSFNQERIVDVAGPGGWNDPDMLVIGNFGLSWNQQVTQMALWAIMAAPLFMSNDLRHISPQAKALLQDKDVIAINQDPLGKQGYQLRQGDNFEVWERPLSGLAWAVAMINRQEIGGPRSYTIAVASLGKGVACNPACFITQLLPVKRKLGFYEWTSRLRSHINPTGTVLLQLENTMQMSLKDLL
Rango-impB inh = prevents formation of the Rango-importin beta complex; Q14974; Potency, µM (series often up to 92.2 µM), without a hit: at the top dose inhibition of complex formation; 340,000 compounds, 0.031% hits; Rango CFP/YFP FRET sensor + importin beta, 45 min; active = rising FRET ratio curve, often small or poorly fitted; inconclusive = mostly compound fluorescence or quenching in the first reads; inactive = flat curves in all reads;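 further: potency means the concentration at half of the fitted maximal effect; 0% = DMSO wells and 100% = buffer wells lacking importin beta; nearly all actives have a fitted effect of over 15% in size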
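FRET biosensor Rango (snurportin 1 IBB between N-terminal EYFP and C-terminal Cerulean), 50 nM in PBS/1 mM DTT/0.02% Tween-20/0.1% BSA, preincubated 5 min RT with compound; 0.125 microM importin beta added, 45 min RT, CFP/YFP FRET ratio read.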
The depositor's hits bear a star; ? = inconclusive; · = no result given.

SMILES | Rango dissoc inh | miR-21 FLuc | GLA inh pH 4.5 | Rango-impB inh
CNc1ccncc1S(=O)(=O)NC | -12.9% | -1.0% | -1.5 | -1.0%
O=C(Nc1cccc2ncccc12)c1ccc2c(c1)OCCO2 | 1.6% | -15.7% | -4.9 | ?
NC(=O)NC(=O)COC(=O)c1cccnc1Nc1ccccc1F | -28.1% | -12.6% | 1.6 | ?
CCCNC(=O)Nc1cc(OCC)c(N2CCOCC2)cc1OCC | 18.3% | 3.9% | -5.0 | -3.5%
Cc1onc(-c2ccccc2)c1C(=O)c1ccccc1 | 13.0% | 5.4% | -2.9 | -1.3%
Cc1ccc(S(=O)(=O)NCC(=O)NCC(=O)OCC(=O)N2CC(=O)Nc3ccccc32)cc1C | 11.0% | 0.5% | -1.3 | 0.0%
Cc1ccc(CN2CCC(n3nccc3NC(=O)CCOc3ccccc3)CC2)o1 | -18.1% | 0.0% | · | -2.9%
CC1(C)CC(=O)c2sc(N)nc2C1 | 12.6% | -4.1% | 5.1 | -1.4%
COc1ccccc1-c1csc(NC(=O)c2cc(-c3cccs3)nc3ccccc23)n1 | 3.9% | -6.1% | 0.1 | -0.7%
COc1ccc(N=Cc2c(C)[nH][nH]c2=O)cc1 | 1.3% | 8.8% | -2.7 | -3.8%
O=C(OC1C2CCC1C1CN(CCc3ccccc3)CC12)c1ccccc1 (stereo unspecified) | -9.3% | 0.8% | -3.7 | 0.1%
CCN1CCN(S(=O)(=O)c2ccc(Cl)c(C(=O)N(CC(C)C)C3CCS(=O)(=O)C3)c2)CC1 (stereo unspecified) | 10.6% | · | · | 5.1%
O=C1O[C@H]([C@@H](O)CO)C(O)=C1O | -3.4% | · | · | -0.8%
CCOC(=O)C1CCN(S(=O)(=O)c2nc3nc(C)cc(C)n3n2)CC1 | ? | -5.6% | -6.5 | -0.9%
CCn1c(CNC(=O)c2cccs2)nnc1SCC(=O)Nc1cc(Cl)ccc1C | -4.6% | -6.9% | -3.9 | 1.5%
Cc1c(Cl)cccc1NC(=O)CCCn1nc([N+](=O)[O-])cc1C | -0.2% | -1.7% | 6.3 | 0.2%
Brc1ccc(/C=N/Nc2ccc3ccccc3n2)cc1 | 0.7% | -62.0% | -10.7 | 4.4%
CC1=C(C(=O)OC(C)C)C(c2coc3ccccc3c2=O)C2=C(CCCC2=O)N1 (stereo unspecified) | -10.0% | -4.1% | -4.8 | ?
CCCn1c(C(Cc2ccccc2)NC(=O)COC)nc2ccccc21 (stereo unspecified) | -10.1% | -3.7% | 4.6 | -2.3%
CCOC(=O)C1CCN(Cc2nnc(-c3cccc(Br)c3)o2)CC1 | 9.3% | -1.9% | · | -3.6%
O=C(Nc1ccc2c(c1)OCCO2)C1CC(c2ccccc2Cl)=NO1 (stereo unspecified) | 31.6% | -53.5% | · | -3.4%
CC(=O)c1cccc(OCc2cc(C(=O)N(C)Cc3cnccn3)no2)c1 | 7.9% | -57.0% | · | 1.2%
C[N+]1(CC(O)c2ccccc2)CCCCCC1 (stereo unspecified) | -2.9% | -0.4% | · | 2.6%
O=C(Nc1ccc(F)cc1)c1cc(S(=O)(=O)N2CCOCC2)cs1 | 17.3% | 7.4% | · | 4.0%
O=C(O)C(Cc1cc(Cl)ccc1Cl)Sc1nc2ccccc2[nH]1 (stereo unspecified) | 2.5% | -3.4% | -0.3 | -0.7%
CSc1nc2ncnc(N)c2[nH]1 | 18.1% | 1.4% | 9.7 | 0.1%
CCCn1c(N/N=C(C)\C=C\c2ccccc2)nc2c1c(=O)[nH]c(=O)n2C | · | -1.5% | 4.0 | ·
C=CCn1c(COc2cc(C)ccc2C(C)C)nnc1SCC(=O)c1c(N)n(C)c(=O)n(C)c1=O | -2.4% | -1.9% | -0.6 | -1.7%
CCN(CC)C(=O)c1ccccc1NC(=O)CN1C(=O)c2ccccc2C1=O | 9.9% | -1.8% | 9.1 | 1.7%
CCOc1cc(/C=N/N=C(/N)c2nonc2N)cc(Br)c1OCc1ccc(Cl)cc1 | 10.9% | -10.6% | -1.4 | 4.5%
O=S(=O)(NC1CC1)c1ccc(S(=O)(=O)N(Cc2ccccn2)C2CC2)cc1 | 0.2% | 5.5% | 3.6 | -0.1%
O=C(N/N=C/c1cccs1)c1cccc2cc[nH]c12 | ? | -32.3% | · | -1.6%
COCCNC(=O)C(c1cccs1)N(C(=O)Cn1nnc2ccccc21)c1cccc(C)c1 (stereo unspecified) | 23.3% | -7.4% | -6.9 | -0.9%
COc1ccc(Cc2nnc(Nc3c(C)cccc3C)o2)cc1OC | 3.2% | 1.1% | 4.8 | -0.7%
CCCCCC(=O)NNC(=O)Nc1ccccc1 | -8.7% | -1.1% | 3.0 | 7.1%
COc1ccc2nc(NNC(=O)COc3ccccc3)sc2c1 | -13.7% | -12.5% | 7.2 | 0.7%
CC(NC(=O)CSc1n[nH]c(=O)n1C1CC1)C12CC3CC(CC(C3)C1)C2 (stereo unspecified) | 20.2% | -10.7% | 3.7 | 4.3%
Cn1c(-c2ccccc2F)cc2onc(-c3ccccc3)c2c1=O | 10.2% | · | · | 3.2%
CCCCN1C(=O)C(O)(CC(=O)c2ccco2)c2cc(Br)ccc21 (stereo unspecified) | -16.3% | 23.8% | 0.6 | 5.9%
CCC1Sc2ccccc2N(CC(=O)NC2CC2)C1=O (stereo unspecified) | 35.1% | 1.4% | -0.6 | -1.6%
CC(c1ccccc1)N1C(=O)c2ccccc2C1O (stereo unspecified) | -10.4% | -2.7% | 0.4 | -3.2%
Cc1ccnc(NC(=O)CN2C(=O)c3ccccc3C2=O)c1 | -8.0% | -0.6% | 3.7 | -3.2%
CCOC(=O)c1ccccc1NC(=O)COC(=O)C1=COCCO1 | 9.3% | -1.6% | 3.1 | -0.3%
Nc1c(C(=O)N2CCOCC2)sc2nc(N3CCOCC3)c3c(c12)CCCC3 | -12.8% | -12.4% | -3.5 | -1.0%
COc1cccc(Nc2cc(C)c3ccccc3n2)c1 | -9.0% | -52.2% | · | -0.2%
CC(C)c1cc(=O)n2[nH]c(N)nc2n1 | -3.5% | -2.5% | 1.7 | 0.1%
C=CC[n+]1c(-c2ccc(Cl)cc2Cl)csc1Nc1ccc(NC(C)=O)cc1 | 7.3% | ? | -11.9 | 0.1%
COc1ccc(CNC(=O)CS(=O)(=O)Cc2nc(-c3cccc(OC)c3)oc2C)cc1 | 0.0% | 7.6% | · | 9.7%
Cc1c(CNC2CCCC2)c(C(=O)O)c(C)n1Cc1ccccc1 | 12.2% | 0.5% | -2.3 | -3.1%
CC(=O)c1ccc(N2Cc3ccccc3/C2=N\C(=O)Nc2ccc(Cl)cc2)cc1 | 0.3% | -36.6% | 3.0 | -2.3%
Other results.
SMILES | Rango dissoc inh | miR-21 FLuc | GLA inh pH 4.5 | Rango-impB inh
CN(CC(=O)Nc1ccccc1Cl)C(=O)COC(=O)c1ccc([N+](=O)[O-])cc1Cl | -11.0% | · | · | -2.6%
CCOC(=O)c1sc(NC(=O)CCN2CCN(CC)CC2)c(C(=O)OCC)c1C | 3.1% | -11.8% | -5.6 | 0.4%
Cn1cccc1/C=C1/SC(=S)N(CC(=O)O)C1=O | ? | -15.7% | -4.3 | ?
CN(C)S(=O)(=O)c1ccc(S(=O)(=O)NCc2cccs2)cc1 | 1.8% | -1.0% | · | 1.9%
C/C(CC(=O)NCc1ccco1)=N\NC(=O)Cc1ccc(Cl)cc1 | 0.4% | 0.1% | 2.5 | 2.5%
COc1ccc(C(CC(=O)O)NS(=O)(=O)c2ccc3c(c2)N(C(C)=O)CC(C)O3)cc1 (stereo unspecified) | 1.2% | -1.3% | · | 3.3%
COc1cc(C(=O)NCC(=O)NCCN2C(=O)S/C(=C\c3ccccc3Cl)C2=O)cc(OC)c1OC | -3.9% | · | · | 3.1%
COc1ccc(C2=NC(CO)(CO)CO2)cc1 | 2.6% | -2.0% | 6.0 | 1.3%
CCS(=O)(=O)N1N=C(c2ccc(NS(C)(=O)=O)cc2)CC1c1ccccc1 (stereo unspecified) | -25.6% | -14.7% | 6.0 | ?
COc1ccc(OCc2cc(C(=O)N(C)C3CCOC3)no2)c(Cl)c1 (stereo unspecified) | 7.4% | -32.5% | · | -2.1%
O=c1oc(-c2cccc([N+](=O)[O-])c2)nc2ccccc12 | 2.5% | -53.3% | · | -1.3%
CCOC(=O)C1CCCn2c1nc1sc3c(c1c2=O)CCCC3 (stereo unspecified) | -7.2% | -8.3% | -5.0 | ?
CCn1cc(C(=O)NCC2CCCO2)c(=O)c2cc(S(=O)(=O)N(C)C3CCCCC3)ccc21 (stereo unspecified) | -14.0% | -12.7% | -9.2 | -3.0%
O=C(CCOc1ccccc1)Nc1ccccc1[N+](=O)[O-] | -21.3% | -35.4% | -23.0 | -4.0%
COc1ccccc1-n1cnnc1SCC(=O)c1ccc[nH]1 | -9.6% | -8.8% | 2.5 | 7.9%
Cc1nn(-c2ccc(F)cc2)c(Cl)c1/C=C(\CCC(=O)O)c1nc2ccccc2s1 | 26.4% | 1.3% | -5.9 | -0.4%
O=C(O)[C@H]1CCCC[C@H]1C(=O)Nc1cc([N+](=O)[O-])ccc1F | -9.3% | 1.0% | 2.5 | -1.2%
O=C(N=C1SC2CS(=O)(=O)CC2N1Cc1ccc(F)cc1)C1CCCO1 (stereo unspecified) | -4.6% | -0.9% | · | -1.0%
CCOc1nc(-c2ccccc2)ccc1-c1noc(-c2ccc(OC)c(OC)c2)n1 | -11.9% | · | · | -0.3%
O=C(CNS(=O)(=O)c1ccccc1)NCC(=O)OCc1ccc(Cl)cc1 | 7.9% | -0.3% | 1.9 | -1.7%
CCOC(=O)Cc1ccc(NS(=O)(=O)c2ccc(SC)cc2)cc1 | -7.6% | 2.6% | 4.4 | 11.0%
CC(C(=O)N1CCN=C1c1ccccc1)N1C(=O)c2ccccc2C1=O (stereo unspecified) | 15.3% | 0.0% | 2.6 | 0.6%
CC(C)C(=O)NC(NC(=S)Nc1ccc(S(N)(=O)=O)cc1)C(Cl)(Cl)Cl (stereo unspecified) | -10.3% | -3.4% | -4.4 | 2.4%
O=C(Nc1ccccc1C(=O)NC1CC1)c1ccccc1 | -3.1% | · | · | ?
COC(=O)Cc1ccc(NC(=S)N2CCN(c3cccc(O)c3)CC2)cc1 | 5.8% | 27.1% | -1.4 | -1.4%
O=c1cc(/N=C/c2coc3cc(Br)ccc3c2=O)[nH]c(=S)[nH]1 | -3.1% | -4.2% | -8.7 | 1.3%
COc1ccc(CN(C(=O)CN2C(=O)C(C)Oc3ccccc32)C2CCCC2)c(OC)c1 (stereo unspecified) | 19.4% | 22.3% | -5.1 | ?
O=C(COc1ccccc1)N1CCc2ccccc2C1 | 0.9% | -31.7% | 4.3 | -4.7%
COC(=O)Nc1nnc(/C=C/c2ccccc2)s1 | -0.1% | -42.2% | ? | 0.7%
O=C(CSc1nc2cc(Cl)ccc2s1)NC1CCCc2ccccc21 (stereo unspecified) | -13.7% | 0.0% | -1.4 | -4.9%
Nc1nc(N2CCN(C(=O)c3ccco3)CC2)nc2ccccc12 | -9.8% | -74.6% | 11.9 | 4.4%
O=C(O)CCn1c(=O)[nH]c2ccccc2c1=O | -13.3% | -4.6% | 11.0 | -3.7%
CCN(CC)S(=O)(=O)c1ccc(/C=C/C(=O)Nc2ccc(F)cc2F)cc1 | 11.3% | -1.8% | 3.6 | 4.0%
Cn1c(=O)cc(SCC(=O)NCCC2=CCCCC2)c2cc(Cl)ccc21 | -12.6% | -1.7% | -0.4 | 1.0%
CC(NCc1ccc2c(c1)OCO2)c1ccccc1 (stereo unspecified) | -2.1% | -1.3% | · | 3.0%
CCCCN(C)CCCNC(=O)CC1Oc2ccccc2NC1=O (stereo unspecified) | 57.4% | -11.9% | -0.5 | -4.9%

Not all compounds are listed. The share of hits here may be higher or lower than overall.
